Compound activity from PubChem BioAssay.
TAR Tat displ: HIV-1 TAR-Tat binding disruption; 100,000 tested, 0.6% active; AID 1259389; HIV-1 TAR RNA, Tat peptide displacement FRET; active compounds read high; z-score (test concentration not listed);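 note: score is relative to mean and SD of negative controls; some compounds called inactive have numbers as strong as hits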
CDC25B CDK2 inh: human CDC25B-CDK2/CyclinA binding inhibition; P30305+P24941; HTRF CDC25B-CDK2/CyclinA binding, anti-His/anti-Flag; active compounds read high; z-score (concentration not given with the values); 94,000 tested, 0.72% active; AID 1259370;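 note: score is relative to mean and SD of negative controls; strong numbers were not always called active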
* = called active by the depositor.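 Rule for the calls: active = z-score from 3 up in half or more of its runs; inactive = the rest.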

What do the screens show for `O=c1c(S(=O)(=O)c2ccc(F)c(Cl)c2)c[nH]c2cc(F)c(Cl)cc12`?
TAR Tat displ: 0.81; CDC25B CDK2 inh: -1.8

Results for Cc1nc2ccccc2c2oc(C(=O)NCCCN3CCCC3=O)cc12 ?
TAR Tat displ: 2.2; CDC25B CDK2 inh: -1.6

How did CCCCCSc1nc2n(n1)C(c1ccc(F)cc1)C(C(=O)OCC)=C(C)N2 (centres undefined) do in these assays?
TAR Tat displ: 0.64; CDC25B CDK2 inh: 0.5

What do the screens show for `CC1=C(C(=O)OC2CCCCC2)C(c2cccc(O)c2)C2=C(CC(C)(C)CC2=O)N1` (centres undefined)?
TAR Tat displ: 1.2; CDC25B CDK2 inh: 1.9

Results for O=C(CCC(=O)n1ncc2ccc(Cl)cc21)N1CCN(c2ccccc2)CC1 ?
TAR Tat displ: -1.1; CDC25B CDK2 inh: -0.94

How did COc1ccc(OCc2nc(-c3ccc4c(c3)nnn4C3CCCC3)no2)cc1 do in these assays?
TAR Tat displ: 3.4

How did O=c1c2ccccc2nc(N2CCOCC2)n1Cc1ccccc1 do in these assays?
TAR Tat displ: 0.72; CDC25B CDK2 inh: -0.82

Results for Brc1ccccc1-c1nnc2sc(Cc3ccccc3)nn12 ?
TAR Tat displ: 0.57; CDC25B CDK2 inh: -1.5

Results for COc1ccc2nc(NC(=O)c3cc(=O)c4ccccc4o3)sc2c1 ?
TAR Tat displ: 0.44; CDC25B CDK2 inh: -0.07

What do the screens show for `CCNS(=O)(=O)c1ccc2c(c1)C(C)(C)C(=O)N2C`?
TAR Tat displ: 0.28

How did OCCCNc1ncnc2c1c(-c1ccccc1)cn2-c1ccc(Br)cc1 do in these assays?
CDC25B CDK2 inh: -1.4

Results for CC(=O)N1N=C(c2cn(C(C)=O)c3ccccc23)OC1c1cccnc1 (centres undefined) ?
TAR Tat displ: 0.28

What do the screens show for `Fc1ccc(CSc2nc3cccnc3n2Cc2ccccc2)cc1`?
TAR Tat displ: 2.2

What do the screens show for `CCn1c(C(=O)N2CCC(C(=O)N3CCN(C(=O)c4ccco4)CC3)CC2)cc2sccc21`?
TAR Tat displ: 0.33; CDC25B CDK2 inh: 1.8

What do the screens show for `Cc1ccc(Cl)cc1NS(=O)(=O)c1ccc2oc(=O)c3ncn(C)c3c2c1`?
TAR Tat displ: -0.46

What do the screens show for `Nc1nc(SCc2nnc(SCC(=O)O)n2-c2ccccc2)nc2sc3c(c12)CCCC3`?
CDC25B CDK2 inh: -1.6

Results for Cc1cc(Cl)ccc1NS(=O)(=O)c1ccc(-c2ccc(=O)[nH]n2)s1 ?
TAR Tat displ: -0.22

What do the screens show for `COc1ccc(Cl)c(Cn2cnc3c2c(=O)n(C)c(=O)n3C)c1`?
CDC25B CDK2 inh: -0.26

How did CS(=O)(=O)NCC(c1ccco1)N1CCN(c2ccccc2)CC1 (centres undefined) do in these assays?
TAR Tat displ: 2.2

How did C=CCSc1ncc(Cl)c(C(=O)Nc2nc3ccc(OC)cc3s2)n1 do in these assays?
TAR Tat displ: 0.71; CDC25B CDK2 inh: -0.9

What do the screens show for `Cc1cc(C)n(-c2nnc(Nc3cccc(F)c3)c3ccccc23)n1`?
TAR Tat displ: 1.2; CDC25B CDK2 inh: -1.5

How did CCCN1CCN(c2nnc(-n3cccc3CNc3cc(OC)cc(OC)c3)s2)CC1 do in these assays?
TAR Tat displ: 2

What do the screens show for `O=C(Cn1nc2c3scc(-c4ccc(F)cc4)c3ncn2c1=O)NCc1ccc(F)cc1`?
TAR Tat displ: 1.7

What do the screens show for `CCC(=O)N1c2ccc(C)cc2C(=C2SC(C(=O)OC)=C(C(=O)OC)S2)C(=S)C1(C)C`?
TAR Tat displ: 1; CDC25B CDK2 inh: 0.15

Results for CC(=O)N1CCc2cc(Br)cc(S(=O)(=O)N3CCN(c4ccccn4)CC3)c21 ?
CDC25B CDK2 inh: 1.1

Results for O=C(O)c1ccc(NC(=O)c2nc(-n3cnnc3)ccc2Br)cc1 ?
TAR Tat displ: 2.5

What do the screens show for `Cc1ccc(S(=O)(=O)Nc2ccc3c(c2)ncn3-c2ccccc2)cc1`?
CDC25B CDK2 inh: -0.26

What do the screens show for `COc1cc2ncc(S(=O)(=O)c3ccc(C)cc3)c(N3CCCC3)c2cc1OC`?
TAR Tat displ: -0.63; CDC25B CDK2 inh: 9.6*

How did COc1ccc(N(Cc2ccc(F)cc2Cl)C2=NC3CS(=O)(=O)CC3S2)cc1 (centres undefined) do in these assays?
TAR Tat displ: 0.42; CDC25B CDK2 inh: 0.16

What do the screens show for `CCOCCc1nn2c(=O)cc(COC(=O)COc3cccc(C)c3)nc2s1`?
TAR Tat displ: 0.26

How did Cc1[nH]nc2oc(=O)cc(-c3ccccc3)c12 do in these assays?
CDC25B CDK2 inh: -0.84

What do the screens show for `O=C1C=CC(=O)N1c1cc(C(F)(F)F)ccc1Cl`?
CDC25B CDK2 inh: -0.03

How did CC(C)CNc1oc(/C=C/c2ccc(F)cc2)nc1C#N do in these assays?
TAR Tat displ: 0.53; CDC25B CDK2 inh: 1.3

How did O=S(=O)(NCCN1CCCC1)c1ccc(C(F)(F)F)cc1 do in these assays?
CDC25B CDK2 inh: -1.6

Results for O=C(Nc1ccccc1)C1CC(=O)n2ncnc2N1 (centres undefined) ?
TAR Tat displ: 0.11; CDC25B CDK2 inh: 0.04

What do the screens show for `COc1ccc2nc(NC(=O)c3cc(N)cc(N)c3)sc2c1`?
CDC25B CDK2 inh: -4

Results for Cc1cc(C)cc(NC(=O)C(NS(=O)(=O)c2ccc3nc(C)sc3c2)C(C)C)c1 (centres undefined) ?
CDC25B CDK2 inh: -1.1

How did CCCCOC(=O)C1C2C=CC3(CN(Cc4cccs4)C(=O)C13)O2 (centres undefined) do in these assays?
TAR Tat displ: -0.31; CDC25B CDK2 inh: -1.5

How did O=S(=O)(c1ccc(Cl)s1)n1cccn1 do in these assays?
CDC25B CDK2 inh: 1.4

What do the screens show for `Cn1c(=O)c2cc(C(=O)Nc3ccc4c(c3)OCCO4)sc2c2ccccc21`?
TAR Tat displ: 2.2; CDC25B CDK2 inh: -1.8

11 entries already listed, arranged by heavy-atom count, smallest number first.
How did Cc1[nH]nc2oc(=O)cc(-c3ccccc3)c12 do in these assays?
CDC25B CDK2 inh: -0.84

What do the screens show for `O=C1C=CC(=O)N1c1cc(C(F)(F)F)ccc1Cl`?
CDC25B CDK2 inh: -0.03

Results for O=C(Nc1ccccc1)C1CC(=O)n2ncnc2N1 (centres undefined) ?
TAR Tat displ: 0.11; CDC25B CDK2 inh: 0.04

How did O=S(=O)(NCCN1CCCC1)c1ccc(C(F)(F)F)cc1 do in these assays?
CDC25B CDK2 inh: -1.6

Results for Brc1ccccc1-c1nnc2sc(Cc3ccccc3)nn12 ?
TAR Tat displ: 0.57; CDC25B CDK2 inh: -1.5

How did CCCCOC(=O)C1C2C=CC3(CN(Cc4cccs4)C(=O)C13)O2 (centres undefined) do in these assays?
TAR Tat displ: -0.31; CDC25B CDK2 inh: -1.5

What do the screens show for `Cc1ccc(S(=O)(=O)Nc2ccc3c(c2)ncn3-c2ccccc2)cc1`?
CDC25B CDK2 inh: -0.26

What do the screens show for `Cn1c(=O)c2cc(C(=O)Nc3ccc4c(c3)OCCO4)sc2c2ccccc21`?
TAR Tat displ: 2.2; CDC25B CDK2 inh: -1.8

What do the screens show for `COc1cc2ncc(S(=O)(=O)c3ccc(C)cc3)c(N3CCCC3)c2cc1OC`?
TAR Tat displ: -0.63; CDC25B CDK2 inh: 9.6*

What do the screens show for `CC1=C(C(=O)OC2CCCCC2)C(c2cccc(O)c2)C2=C(CC(C)(C)CC2=O)N1` (centres undefined)?
TAR Tat displ: 1.2; CDC25B CDK2 inh: 1.9

What do the screens show for `CCn1c(C(=O)N2CCC(C(=O)N3CCN(C(=O)c4ccco4)CC3)CC2)cc2sccc21`?
TAR Tat displ: 0.33; CDC25B CDK2 inh: 1.8

(next part)
What do the screens show for `CC1(C)OC(=O)C(=Cc2ccc(OCc3ccc(F)cc3)c([N+](=O)[O-])c2)C(=O)O1`?
CDC25B CDK2 inh: -1.6

How did CCOC(=O)c1cc(-c2ccc(S(=O)(=O)N3CCCc4ccccc43)s2)on1 do in these assays?
TAR Tat displ: -1.6

Results for Cc1ccc(CN2CCc3nc(Nc4ccc5c(c4)OCCO5)ncc3C2)cc1C ?
TAR Tat displ: 1.8

How did CC(C)Sc1n[nH]c(=O)n1-c1ccc2c(c1)OCCO2 do in these assays?
CDC25B CDK2 inh: -0.94

How did O=C1c2oc3ccccc3c(=O)c2C(c2ccccc2F)N1c1nccs1 (centres undefined) do in these assays?
TAR Tat displ: 0.71; CDC25B CDK2 inh: -0.55

What do the screens show for `O=C(c1noc2c1CCc1sccc1-2)N(CCc1ccncc1)CC1CCCO1` (centres undefined)?
TAR Tat displ: 1

How did CCCCCN1CC(C(=O)c2ccc(Cl)c3ccccc23)c2ccccc21 (centres undefined) do in these assays?
TAR Tat displ: 0.94

Results for C=CCOc1ccc(C2c3c(oc4ccccc4c3=O)C(=O)N2CCCN2CCOCC2)cc1 (centres undefined) ?
TAR Tat displ: 0.82; CDC25B CDK2 inh: -0.49

How did CCOc1cccc(C2Oc3ccccc3C3CC(c4cccs4)=NN32)c1O (centres undefined) do in these assays?
CDC25B CDK2 inh: -1.5

What do the screens show for `O=C(NCCCN1CCCC1)C1CCN(c2ccc(-c3cccs3)nn2)CC1`?
TAR Tat displ: -0.98

Results for COc1ccc(OC)c(CNc2nc(N3CCN(C4CCCCC4)CC3)nc3c2cnn3C)c1 ?
TAR Tat displ: 0.41

How did CCC(C(=O)NCCCOC(C)C)n1nc(C)c2sc3ccccc3c2c1=O (centres undefined) do in these assays?
TAR Tat displ: 1.1; CDC25B CDK2 inh: -0.53

How did O=C(OCc1cc(=O)n2ccsc2n1)c1ccc(NC(=O)c2ccco2)cc1 do in these assays?
TAR Tat displ: 1.6

What do the screens show for `CC1CCN(S(=O)(=O)c2ccc3nc(N4CCN(c5ccccc5)CC4)ccc3c2)CC1`?
TAR Tat displ: 1.8

Results for CN(C)/C=N/N(C)c1ncccc1[N+](=O)[O-] ?
CDC25B CDK2 inh: -1.9

What do the screens show for `CCOC(=O)c1nnn(-c2nonc2N)c1CSc1nnc(N)s1`?
CDC25B CDK2 inh: -1.1

Results for CCOc1ccc(-n2ccc(=O)c(C(=O)Nc3sc4c(c3C(=O)NC)CCCC4)n2)cc1 ?
TAR Tat displ: 0.88; CDC25B CDK2 inh: 0.22

How did CN1CCN(C(=O)CCCN2C(=O)CSc3ncccc32)CC1 do in these assays?
TAR Tat displ: -0.77; CDC25B CDK2 inh: 1.2

How did Cc1nn2c(=O)cc(COC(=O)CNC(=O)c3ccco3)nc2s1 do in these assays?
TAR Tat displ: 0.25

Results for c1ccc(CSc2nnc([C@@H]3CCCN3)o2)cc1 ?
TAR Tat displ: -2.4; CDC25B CDK2 inh: 3.8

Results for Cc1cc(=O)n2nc(N3CCCC3C(=O)NCC3CCCO3)sc2n1 (centres undefined) ?
TAR Tat displ: -1.3; CDC25B CDK2 inh: 0.01

What do the screens show for `O=C(CSc1nnc(-c2cc3ccccc3[nH]2)o1)Nc1ccc(F)cc1`?
TAR Tat displ: 0.74; CDC25B CDK2 inh: -0.19

Results for CCOc1ccc2nc(NC3=NCN(Cc4ccco4)CN3)nc(C)c2c1 ?
TAR Tat displ: 0.54; CDC25B CDK2 inh: -1.2

How did COc1ccc(-n2cc[nH]c(=O)c2=O)cc1 do in these assays?
TAR Tat displ: 3.4; CDC25B CDK2 inh: -2.2

What do the screens show for `COc1ccc(-c2noc(NCCc3ccsc3)n2)cc1`?
TAR Tat displ: -1.5

How did Clc1ccc(CCNc2ncnc3[nH]ncc23)cc1 do in these assays?
TAR Tat displ: 0.47

How did O=C(Nc1nnc(-c2ccccc2I)s1)Nc1ccccc1F do in these assays?
CDC25B CDK2 inh: -6.2

Results for COc1ccc(-c2nc(C#N)c(NCCN3CCOCC3)o2)cc1 ?
TAR Tat displ: 1.1; CDC25B CDK2 inh: -0.73

What do the screens show for `CC1CCC(CC2CCN(C(=O)NC(C)(C)C)CC2)CC1` (centres undefined)?
TAR Tat displ: 1.4

How did Cc1nc2c(-c3ccc(F)cc3)c(C)nn2c(C)c1CCC(=O)NCc1ccc2c(c1)OCO2 do in these assays?
CDC25B CDK2 inh: -0.96

What do the screens show for `CCOc1ccc(C2CC(=O)N3CN(C4CCCC4)CSC3=C2C#N)cc1` (centres undefined)?
TAR Tat displ: 2.3; CDC25B CDK2 inh: 1.9

What do the screens show for `CC(C)Cc1nc2ccccc2n1CCOc1ccccc1`?
TAR Tat displ: 0.74; CDC25B CDK2 inh: -0.85

What do the screens show for `Cc1nc2nc(NCc3ccccc3F)nn2c(C)c1Cl`?
TAR Tat displ: 0.34; CDC25B CDK2 inh: -0.19

What do the screens show for `Cc1cc(OC(C)C(=O)N(Cc2cccs2)C2CCS(=O)(=O)C2)cc(C)c1Cl` (centres undefined)?
TAR Tat displ: 1.8; CDC25B CDK2 inh: 2.1

What do the screens show for `Clc1cccc(-c2nnc3sc(Cc4ccccc4)nn23)c1`?
TAR Tat displ: -0.14; CDC25B CDK2 inh: -2.1

What do the screens show for `O=S(=O)(Nc1ccc(N2CCCCC2)cc1)c1cc(Cl)sc1Cl`?
CDC25B CDK2 inh: -2.9

Results for Cc1cc(C)c2oc(C(=O)NCC(c3ccc(C)o3)N3CCN(C)CC3)cc(=O)c2c1 (centres undefined) ?
TAR Tat displ: -2.7; CDC25B CDK2 inh: -0.42

How did O=c1c2nccnc2nc(SCc2cccc(F)c2)n1Cc1ccc2c(c1)OCO2 do in these assays?
TAR Tat displ: -1

How did O=C(CN1c2ccccc2NC2=C(C(=O)CCC2)C1c1ccco1)NCc1cccs1 (centres undefined) do in these assays?
TAR Tat displ: -9.4

How did COC(=O)c1ccc([C@@H]2Nc3c(OC)ccc(C)c3[C@@H]3C=CC[C@@H]32)cc1 do in these assays?
CDC25B CDK2 inh: -2.2

What do the screens show for `Cc1cc(-c2ccc(C)c(S(=O)(=O)NCCN3CCN(c4cc(Cl)ccc4C)CC3)c2)on1`?
TAR Tat displ: 0.96

Results for O=C(CCCN1C(=O)c2cccnc2Sc2ccccc21)NCCN1CCCC1 ?
TAR Tat displ: -0.46
